# Bead autofluor: counter-screen for toxin protease inhibitors: compound fluorescence | compound autofluorescence counterscreen, microsphere flow cytometry; hits give high values | fluorescence intensity (concentration not given with the values) | hit rate 3.1% among 360,000;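 active means at least 3 SD above the mean of all compounds, about 16000 in these data; inconclusive means too few beads counted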;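 further: 100 nL of 1 mM stock went into each well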
# Mtb hypoxia rep: inhibitors of hypoxia-regulated fluorescent reporter in Mycobacterium tuberculosis. M. tuberculosis hypoxia-regulated fluorescent reporter, fluorescence. AID 1159583. fluorescence inhibition, % (concentration not given with the values). hit rate 0.1% among 300,000;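 active means 35 to 45% if threefold the growth effect, above 45% if 1.5-fold the growth effect; inactive means the rest, general growth blockers included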;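 further: wells of about 50 µL received 100 nL stock; 0% = vehicle wells and 100% = reference inhibitor wells; whole bacteria with a GFP reporter of the hypoxia response; strong numbers were not always called active; many hits fall short of the cut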
# PrP UTR inh: suppresses PrP 5' UTR mRNA reporter expression; cell-based PrP 5' UTR mRNA reporter, plate reader; inhibition, % (concentration not given with the values); hit rate 0.35% among 340,000; AID 488862;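 active means every replicate at 50% or more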;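 further: 0 = median of the neutral control wells; tested in H4 reporter cells; numbers are from one replicate; inactives centre near -14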
# Sa ugtP lethal: compounds lethal to S. aureus RN4220 ugtP deletion mutant | OD600 growth, 16 h; some inactives read as strong as hits | growth inhibition, % (concentration not given with the values) | hit rate 0.54% among 330,000 | AID 1259309;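 active means z-score under -3 and OD600 up to 0.15 on both plates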;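 further: plate controls were untreated wells for no effect and antibiotic for full effect; wells of about 80 µL received 100 nL stock; the first replicate is given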
# BJeLR lethal: kills HRASV12-expressing BJeLR cells; BJeLR (HRASV12) viability, CellTiter-Glo ATP luminescence, 48 h; reference of the scale not given here; AID 1554; hit rate 0.17% among 300,000; inhibition, % (no concentration beside the values);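 active means replicate mean above 50%; inconclusive means above 50% but judged a plate artefact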;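 further: 50 nL library stock added to about 25 µL; numbers are from one replicate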
# RN4220 kill: S. aureus RN4220 growth inhibition. OD600, 16 h. inhibition, % (concentration not given with the values). hit rate 0.33% among 330,000. AID 1259311;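 active means z-score of -3 or lower and OD600 up to 0.18 on both plates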;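 further: plate controls were untreated cells for no effect and reference antibiotic for full effect; stock transfer was 100 nL into about 80 µL; one replicate is shown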
# Mtb hypoxia rep growth: also measured in Mtb hypoxia rep; calls as there; growth inhibition, %; measured here: M. tuberculosis growth (absorbance);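 0% = vehicle and 100% = reference antibiotic; read after six days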
# The depositor's hits bear a star; ? = inconclusive; nt = no result given.
SMILES,Bead autofluor,Mtb hypoxia rep,Mtb hypoxia rep growth,PrP UTR inh,Sa ugtP lethal,BJeLR lethal,RN4220 kill
CCCC1=Nc2cc(C(=O)NCCN3CCOCC3)ccc2Sc2ccc(C)cc21,5519,6,2,-24,-5,2,4.1
Cc1c(Cl)cnc(NC(=O)COC(=O)c2ccc([N+](=O)[O-])s2)c1Cl,2587,10,-2,-16,-4,-7,12
CC(C)CNC(=O)COC(=O)c1n[nH]c2ccccc12,4327,nt,nt,-25,nt,-2,nt
Cc1cnc(CN(C)Cc2c(C(=O)N3CCc4ccccc4C3)nc3ccc(Cl)cn23)[nH]1,2983,0,-3,-12,2,-1,4.5
COc1ccc(/C=C2\SC(=S)N(CC(=O)N3CCN(C)CC3)C2=O)cc1,6229,6,8,nt,10,3,5.8
OC(c1ccc(F)cc1)(c1ccc(F)cc1)[C@@H]1CCCN1,2529,nt,nt,-14,nt,8,nt
CCOc1ccc(-c2cc3nc(C4CCN(C(=O)OC(C)(C)C)CC4)c(C(=O)O)cn3n2)cc1,11090,-4,3,-29,-10,5,6.3
CCCCNS(=O)(=O)c1ccc2nc(SCC(=O)Nc3cc(C)cc(C)c3)[nH]c2c1,2014,1,2,-5,-13,12,-4.4
COc1cc(SC)ccc1C(=O)Nc1ccc(OCC(=O)N2CCOCC2)cc1,3385,-6,-5,-5,5,-20,-2.5
O=C1NC(c2ccc(-c3ccccc3[N+](=O)[O-])o2)C(C(=O)c2ccc(Cl)cc2)C(O)(C(F)(F)F)N1 (configuration not stated),2073,4,6,-6,-22,-26,9.3
Cc1cc(C(=O)CSc2nnc(-c3ccncc3)n2-c2ccccc2)c(C)n1C,5848,-12,-4,-8,-16,0,-5.3
CCOC(=O)c1[nH]c2ccccc2c1NC(=O)Nc1ccc(OC)cc1,2575,nt,nt,-12,-9,0,2.5
O=C(CSc1nnc(-c2ccc(OC(F)F)cc2)o1)N1CCOCC1,7904,6,18,-38,-12,1,4.4
C/C(=N\N1CCN(c2ccccc2)CC1)c1cccs1,5053,nt,nt,-29,nt,6,nt
COc1ccc(NC(=O)CSc2nnc(C)c3ccccc23)cc1,10787,-1,11,-7,-3,-3,-2.9
CCOc1ccc(NC(=O)C(C)Oc2ccccc2C(=O)Nc2ccc(C)c(Cl)c2)cc1 (configuration not stated),8662,5,1,nt,-10,-3,18
CN1CCC2(CC1)CC(NC=O)c1ccccc1O2 (configuration not stated),3267,-3,6,-4,10,4,2.7
CCCCNC(=O)COc1ccccc1[N+](=O)[O-],1968,-1,-1,-28,-4,10,7.3
COC(=O)C(C)(C)ONC(=O)Nc1ccccc1Br,10198,10,7,-10,-7,0,6.4
CC(=O)c1cccc(NC(=S)NC(=O)c2ccccc2Br)c1,1987,nt,nt,-12,5,-15,1.8
N#Cc1nc(Cc2cccc3ccccc23)oc1N1CCOCC1,8426,11,7,-15,3,3,2.9
O=C(NC(Cc1c[nH]c2ccccc12)c1nnc2n1CCCCC2)c1ccc(Cl)cc1 (configuration not stated),14903,5,4,-10,20,2,-0.8
CN(C(=O)c1ccc(-c2nn(C)c(=O)c3ccccc23)cc1)c1ccccc1,4356,12,6,-29,27,-2,3.4
CN1c2ccc(Cl)cc2C(=O)NC1c1ccc([N+](=O)[O-])s1 (configuration not stated),?,-4,-6,-15,1,-1,15
COc1ccccc1N(C(=O)CNC(=O)c1ccco1)C(C(=O)NC1CCCC1)c1ccco1 (configuration not stated),3860,16,1,-13,-4,-4,2.3
O=C(NN=Cc1cccc(Br)c1)c1ccc(Cn2cc(Br)cn2)o1,nt,3,-2,nt,-5,nt,-7.1
CC(NC(=O)c1nc[nH]c1C(=O)NC(CCCCN)C(=O)OC(C)(C)C)C(=O)OCc1ccccc1 (configuration not stated),nt,-5,1,nt,2,nt,2.0
Cc1ccc(S(=O)(=O)O/N=C2/CCCc3occc32)cc1,5393,nt,nt,-15,nt,8,nt
CN(C)S(=O)(=O)c1cccc(C(=O)Nc2ccc(S(=O)(=O)N3CCCC3)cc2)c1,4725,-1,7,-17,17,6,10
CCOc1ccc(NC(=O)/C(C#N)=C/c2cn(CC(=O)O)c3ccccc23)cc1,3608,-1,5,-14,3,-1,1.0
Nn1c(Nc2ccccc2)nc2sc3c(c2c1=O)CCC3,2528,3,5,-63,33,1,-7.4
CCn1ncc(Br)c1C(=O)Nc1cc(C(=O)OC)ccc1C(=O)OC,2978,4,7,-12,-5,-6,-12
COC(=O)c1sc2nc(SCC(=O)N(C)c3ccccc3)n(N)c(=O)c2c1C,2640,-2,-5,-1,-8,-2,6.2
Cc1ccc(C(=O)NCCSc2c(C)[nH]c3ccccc23)cc1[N+](=O)[O-],5238,6,9,3,-22,2,-8.8
CSc1ccccc1NC(=O)c1cnccn1,16758*,8,11,-1,-5,9,5.0
Cc1cc(NC(=O)CSCC(=O)Nc2cccc(S(=O)(=O)N3CCCCCC3)c2)no1,5295,9,5,-14,3,2,5.2
CN(C)c1ccc(-c2c(-c3ccc4c(c3)OCO4)noc2-c2ccsc2)cn1,3098,-5,8,-27,22,6,-6.1
O=C(CSc1nnc(-c2ccncc2)n1Cc1ccco1)Nc1nccs1,4510,nt,nt,-11,2,0,-2.1
CN1CCN(c2ccc(S(=O)(=O)N3CCCCC3)cc2NC(=O)Cc2ccc(Cl)cc2)CC1,2179,8,7,-20,4,4,9.2
Cc1ccsc1/C=N/NC(=O)c1nnn(-c2nonc2N)c1-c1ccc2c(c1)OCO2,4507,nt,nt,-4,nt,-1,nt
Cc1cccnc1Nc1nc(-c2ccc(O)cc2O)cs1,4552,nt,nt,-75,10,-8,-4.3
Cc1ccc(C(=O)c2sc3nsc(C)c3c2N)cc1,2655,nt,nt,-58,-8,2,-1.5
Cc1cc(=O)oc2cc(OCC(=O)NC3CCCCC3)ccc12,5595,-2,1,-12,5,-7,-1.1
O=C(CSc1ccccn1)Nc1ccc2c(c1)OCCO2,5342,7,-10,-66,12,-2,-0.3
O=C(CSc1ccc(Cl)cc1)NC(=O)NCc1ccco1,4018,15,2,-31,81,1,5.5
O=C(O)/C=C/c1cnc[nH]1,6216,nt,nt,-8,nt,3,nt
COc1ccc(-c2nc(C#N)c(N3CCN(C(=O)c4ccco4)CC3)o2)cc1OC,5445,0,-3,-20,-3,-5,0.3
COc1cccc(NC(=S)NC(=O)Cc2ccccc2)c1,6017,0,3,-7,53,7,1.3
O=S(=O)(CCSc1ccc(C(F)(F)F)cn1)c1ccccc1,4484,4,15,-15,6,0,4.5
COCc1cc(CN2CCN(CCc3ccccc3)C(CCO)C2)ccc1OC (configuration not stated),3901,14,6,-20,2,-6,3.2
O=C(O)CC(CC(=O)Nc1ccccc1C(=O)O)c1ccccc1 (configuration not stated),3032,10,3,-15,1,1,5.1
C[C@H](NC(=O)c1ccco1)C(=O)Nc1ccc(C#N)cc1,6088,-1,-5,-9,2,-1,2.0
Cc1ccc(NC(=O)NCc2ccccn2)cc1,1969,-1,7,-24,6,-8,1.2
COc1ccc(OC)c(-n2c(SCC(N)=O)nnc2-c2c[nH]c3ccccc23)c1,4196,7,7,-6,-13,11,-16
CSc1nc(O)c(/C=C2\C=Nc3ccccc32)[nH]1,2239,nt,nt,-33,nt,6,nt
Brc1ccc(/C=N/Nc2ncnc3c2cnn3Cc2ccccc2)cc1,3554,nt,nt,-5,nt,5,nt
CN(C)CCSc1nnc(-c2ccccc2)o1,4068,15,12,-36,4,-3,2.2
O=[N+]([O-])c1ccc2nc(-[n+]3c(-c4ccccc4)cc(-c4ccccc4)cc3-c3ccccc3)[nH]c2c1,2545,-2,-1,-11,17,-5,13
CCCCCCCCCC(=O)NN=C(C)c1cccnc1,nt,1,9,nt,-21,nt,-2.5
Cc1cccc(N(C(=O)c2ccco2)C(C(=O)NC2CCCC2)c2ccco2)c1C (configuration not stated),4153,2,-12,4,14,-6,3.8

# Part of the list above in another layout.
# Value order: Bead autofluor | Mtb hypoxia rep | Mtb hypoxia rep growth | PrP UTR inh | Sa ugtP lethal | BJeLR lethal | RN4220 kill
COc1cccc(NC(=S)NC(=O)Cc2ccccc2)c1
 : 6017 | 0 | 3 | -7 | 53 | 7 | 1.3
O=S(=O)(CCSc1ccc(C(F)(F)F)cn1)c1ccccc1
 : 4484 | 4 | 15 | -15 | 6 | 0 | 4.5
COCc1cc(CN2CCN(CCc3ccccc3)C(CCO)C2)ccc1OC (configuration not stated)
 : 3901 | 14 | 6 | -20 | 2 | -6 | 3.2
O=C(O)CC(CC(=O)Nc1ccccc1C(=O)O)c1ccccc1 (configuration not stated)
 : 3032 | 10 | 3 | -15 | 1 | 1 | 5.1
C[C@H](NC(=O)c1ccco1)C(=O)Nc1ccc(C#N)cc1
 : 6088 | -1 | -5 | -9 | 2 | -1 | 2.0
Cc1ccc(NC(=O)NCc2ccccn2)cc1
 : 1969 | -1 | 7 | -24 | 6 | -8 | 1.2
COc1ccc(OC)c(-n2c(SCC(N)=O)nnc2-c2c[nH]c3ccccc23)c1
 : 4196 | 7 | 7 | -6 | -13 | 11 | -16
CSc1nc(O)c(/C=C2\C=Nc3ccccc32)[nH]1
 : 2239 | nt | nt | -33 | nt | 6 | nt
Brc1ccc(/C=N/Nc2ncnc3c2cnn3Cc2ccccc2)cc1
 : 3554 | nt | nt | -5 | nt | 5 | nt
CN(C)CCSc1nnc(-c2ccccc2)o1
 : 4068 | 15 | 12 | -36 | 4 | -3 | 2.2
O=[N+]([O-])c1ccc2nc(-[n+]3c(-c4ccccc4)cc(-c4ccccc4)cc3-c3ccccc3)[nH]c2c1
 : 2545 | -2 | -1 | -11 | 17 | -5 | 13
CCCCCCCCCC(=O)NN=C(C)c1cccnc1
 : nt | 1 | 9 | nt | -21 | nt | -2.5
Cc1cccc(N(C(=O)c2ccco2)C(C(=O)NC2CCCC2)c2ccco2)c1C (configuration not stated)
 : 4153 | 2 | -12 | 4 | 14 | -6 | 3.8

# Next part.
SMILES,Bead autofluor,Mtb hypoxia rep,Mtb hypoxia rep growth,PrP UTR inh,Sa ugtP lethal,BJeLR lethal,RN4220 kill
Cc1onc(-c2c(Cl)cccc2Cl)c1C(=O)ONC(=O)c1cc(C(F)(F)F)cc(C(F)(F)F)c1,4321,18,5,-27,7,-5,4.2
CCC1=C(OC(=O)N(CC)CC)N2C(=O)OC(=NCC3CC3)[C@]2(C)C2C1=CCC1C(=O)N(C)C(=O)C12 (some centres not stated),nt,11,11,nt,-5,nt,3.4
CCNc1ccc(Br)cc(C(=O)/C=C/c2c(Cl)cccc2Cl)c1=O,6714,15,6,-18,9,-3,8.0
CCN(CC)C(=O)c1ccc(NC(=O)c2ccc3c(c2)NC(=O)CS3)cc1,3100,8,3,-14,13,nt,7.5
O=C(O)C1CCCCC1C(=O)NCCCN1CCOCC1 (configuration not stated),3349,8,8,-16,-1,-20,3.8
Cc1ccc(NN=Cc2ccncc2)cc1,nt,-8,-12,nt,0,nt,-0.7
COC(=O)CNc1nc(-c2ccccc2F)nc2ccccc12,3253,13,11,-10,-15,-3,-7.3
O=S(=O)(c1ccc2c(c1)OCCO2)N1CCN(Cc2ccc3c(c2)OCO3)CC1,9199,17,4,-19,3,-2,2.3
CCOCCCNC(=O)C(c1ccc(OC)cc1)N(Cc1cccs1)C(=O)c1ccccn1 (configuration not stated),5359,9,2,-2,9,nt,4.5
CCCCCCCCc1nc(=S)[nH][nH]1,nt,8,10,-13,-3,0,-0.2
Cn1c(NC(=O)c2ccco2)c(-c2ccccc2)c(=O)c2ccccc21,8467,3,1,-30,-3,-3,0.3
O=C(O)c1ccc2cccc(O)c2n1,4931,nt,nt,-28,nt,-3,nt
CCO/N=C(\C)c1c(O)c(CC)c(-c2ccccc2)n(-c2ccccc2)c1=O,2709,nt,nt,3,nt,-10,nt
COCCN1C(=O)NC(=O)/C(=C\c2ccc(Br)cc2)C1=O,4366,13,-3,-6,8,-1,1.0
CCN(CC)S(=O)(=O)c1ccc(N2CCCC2)c(NC(=O)C2CSC3(C)CCC(=O)N23)c1 (configuration not stated),5045,4,-1,-8,2,-4,3.6
CCOC(=O)c1c(-c2ccccc2)csc1NC(=O)c1nn(CC)cc1Br,8400,11,7,-14,-12,-1,-3.4
COC(=O)c1ccc(NC(=S)NC(=O)c2c(Cl)cnn2C)cc1,2470,6,9,-5,11,3,0.2
COc1cc(/C=C/C(=O)OCC(=O)NCC2CCCCC2)ccc1O,4961,10,1,-4,7,nt,1.9
CC1CCC2[C@@H](C)C(=O)OC3O[C@]4(C)CCC1C32OO4 (some centres not stated),?,84*,11*,-6,-3,-4,2.4

# Screens (PubChem)
